# High-throughput results deposited in PubChem by National Center for Advancing Translational Sciences (NCATS).
# hNpr1 antagonist: blocks ANP-stimulated signaling of human Npr1 receptor; Potency, µM (titrated, usually from 46.3 µM), for the others: top-dose activity change, negative = inhibition, usual class: inhibitors; hit rate 1.6% among 76,000; HEK293 hNpr1 GloSensor cGMP, ANP-stimulated luminescence; AID 1347048; P16066; active = well fitted inhibition curve with a large enough effect; inconclusive = small, poorly fitted or top-dose-only effect; inactive = no such curve, though single readings can be large or run the other way;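 further: nearly all actives have a fitted effect of over 60% in size; nearly all hits also lower the signal before the agonist is added; a reference antagonist and vehicle were the controls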
# Target sequence (P16066 whole entry, looked up): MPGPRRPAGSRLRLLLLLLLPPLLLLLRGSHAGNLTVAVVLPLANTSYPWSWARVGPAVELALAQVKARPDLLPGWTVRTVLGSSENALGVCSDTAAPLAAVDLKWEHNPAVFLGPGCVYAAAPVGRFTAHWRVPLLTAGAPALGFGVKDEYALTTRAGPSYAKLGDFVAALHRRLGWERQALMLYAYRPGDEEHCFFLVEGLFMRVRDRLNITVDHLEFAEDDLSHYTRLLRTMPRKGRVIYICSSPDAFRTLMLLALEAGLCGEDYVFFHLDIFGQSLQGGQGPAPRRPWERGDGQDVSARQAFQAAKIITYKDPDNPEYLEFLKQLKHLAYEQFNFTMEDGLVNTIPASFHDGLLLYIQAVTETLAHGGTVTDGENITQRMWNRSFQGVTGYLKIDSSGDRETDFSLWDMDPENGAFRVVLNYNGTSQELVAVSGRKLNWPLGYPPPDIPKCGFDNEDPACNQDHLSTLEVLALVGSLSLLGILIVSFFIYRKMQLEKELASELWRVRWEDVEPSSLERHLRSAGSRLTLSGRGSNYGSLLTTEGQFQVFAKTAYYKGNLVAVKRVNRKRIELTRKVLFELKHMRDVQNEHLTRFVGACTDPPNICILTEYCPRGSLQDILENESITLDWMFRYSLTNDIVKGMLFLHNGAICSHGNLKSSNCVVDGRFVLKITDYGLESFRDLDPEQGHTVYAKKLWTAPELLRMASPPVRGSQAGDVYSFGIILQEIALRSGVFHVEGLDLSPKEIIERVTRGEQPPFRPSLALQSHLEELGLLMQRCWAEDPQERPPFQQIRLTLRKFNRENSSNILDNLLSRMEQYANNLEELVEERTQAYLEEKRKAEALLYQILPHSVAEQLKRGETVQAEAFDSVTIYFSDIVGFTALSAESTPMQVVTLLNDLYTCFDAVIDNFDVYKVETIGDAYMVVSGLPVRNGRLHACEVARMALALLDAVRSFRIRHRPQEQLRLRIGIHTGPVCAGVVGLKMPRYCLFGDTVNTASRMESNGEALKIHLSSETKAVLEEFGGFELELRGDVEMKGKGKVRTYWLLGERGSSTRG
#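 Compound pre-incubated 30 min at room temperature on GloSensor-loaded HEK293 cells stably carrying hNpr1 and the pGS-40F cGMP biosensor. Stimulation uses hNppA at 0.1 nM final; luminescence is taken at baseline and 20 min post-agonist.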
# The depositor's hits bear a star; u = inconclusive; [ ] = another dose, or the depositor's remark. On the % scale 0 is the no-effect control and ±100 the full control effect; potency means the concentration at half of the fitted maximal effect.
SMILES,hNpr1 antagonist
COc1ccc(N2C(=O)C3(CCCCC3)C2C(=O)NCc2nc3ccccc3n2C)cc1 (centres undefined),1.4%
CSc1cccc(NC(=O)Cn2c(C)cc3nc4n(c(=O)c32)CCCCC4)c1,6.5%
COc1cccc(CN[C@H]2[C@H](O)[C@H](O)C[C@@H]2c2ccc(C(F)(F)F)nc2)c1,-1.7%[70.6 µM]
OCCC1CCN(c2ccc(-c3nc(CCCc4ccccc4)no3)cn2)CC1,-17.3%
C#CCN(C)C(=O)C[C@@H]1c2nc(NC(=O)COC)sc2C[C@@H]2[C@](C)(CO)[C@H](O)CC[C@]21C,2.8%
CNC(=O)N1CCC(Cc2ncc(C)n2CCOC)C1 (centres undefined),-0.6%
CSc1ncc(CN2CCCN(S(=O)(=O)N3CCCC3)CC2)cn1,-0.3%
Cc1ccccc1CN1C[C@H](O)C[C@H]1c1nc(C2CC2)no1,4.6%[70.6 µM]
CC(=O)N1CCc2nn(CC(=O)N3CCc4ccccc43)c(=O)cc2C1,0.1%
CCCn1ccc2sc(C)c(C(=O)O)c2c1=O,-9.1%
Cc1nc2scc(CC(=O)N3CCCCC3)n2c(=O)c1-c1cc(C)n(-c2ccc(F)cc2)n1,-2.8%
COc1ccccc1OCCNC(=O)[C@@H]1COCC(=O)N1Cc1ccc(F)cc1,-0.4%
CN1C[C@H]2CN(Cc3ccc(C(F)(F)F)cc3)CCN2C1=O,-6.4%[70.6 µM]
O=C(O)C[C@@H]1CCN(C(=O)C2CCC2)C[C@@H]1CCN1CCN(c2cccc(C(F)(F)F)c2)CC1,0.1%
OC1(CN2CCC(CCn3cccn3)CC2)CNCCOC1 (centres undefined),3.8%
COCCN1C(=O)CS(=O)(=O)C12CCN(C(=O)c1ccc(C)cc1)CC2,3.8%
COc1ccc(CC(=O)Nc2ccc(=O)n3c2[C@@H]2C[C@@H](CN(C(=O)Nc4ccc(F)cc4)C2)C3)cc1,0.9%
O=C(NC[C@@H]1CCCN1)C1CCN(c2nc(-c3ccccc3)nc3c2CCC3)CC1,-6.4%
CC(=O)Nc1ccc(C2(C(=O)NCc3cccs3)CCC2)cc1,0.3%
Cc1ccc(C(=O)N2CCc3sc(C(=O)NCc4ccc(F)cc4F)cc3C2)cc1,-1.0%
Cc1cc(CN2CCC(CO)(Cc3ccccc3Cl)CC2)cc(C)c1O,-8.1%
COC(=O)CNC(=O)N1CCOC(c2ccc(Cl)c(Cl)c2)C1 (centres undefined),3.7%
CO[C@H]1C(=O)N(C(C)C)[C@H]1C1CCN(Cc2ccc3cc[nH]c3c2)CC1,7.4%
O=C1NCCCCCN(Cc2cn[nH]c2-c2ccccc2)[C@H]2CCC[C@@H]12,2.7%
Cn1nccc1C(=O)N1CCC(N2CC(OCC3CC3)C23CCOCC3)CC1 (centres undefined),2.2%
Fc1cccc(CN2CCC(N3CC(OCC4CC4)C34CCCCC4)CC2)c1 (centres undefined),0.6%
CN(C)c1cccc(C(=O)N2CCCN(c3cc(-c4ccccc4)[nH]n3)CC2)c1,-1.7%
Cc1nc(-c2cccc(Cl)c2)n(CC(=O)Nc2ccc(F)cc2)c(=O)c1CCO,-3.8%
COCc1cc(C[C@@H]2CC[C@H](O)[C@@H](CNC(=O)NC(C)C)O2)no1,2.2%[70.6 µM]
O=C(NC1CCCN(c2cc(-c3ccccc3)[nH]n2)C1)c1ccc(Cl)cc1 (centres undefined),-11.5%

# A second format for 14 compounds above:
SMILES | hNpr1 antagonist
COCCN1C(=O)CS(=O)(=O)C12CCN(C(=O)c1ccc(C)cc1)CC2 | 3.8%
COc1ccc(CC(=O)Nc2ccc(=O)n3c2[C@@H]2C[C@@H](CN(C(=O)Nc4ccc(F)cc4)C2)C3)cc1 | 0.9%
O=C(NC[C@@H]1CCCN1)C1CCN(c2nc(-c3ccccc3)nc3c2CCC3)CC1 | -6.4%
CC(=O)Nc1ccc(C2(C(=O)NCc3cccs3)CCC2)cc1 | 0.3%
Cc1ccc(C(=O)N2CCc3sc(C(=O)NCc4ccc(F)cc4F)cc3C2)cc1 | -1.0%
Cc1cc(CN2CCC(CO)(Cc3ccccc3Cl)CC2)cc(C)c1O | -8.1%
COC(=O)CNC(=O)N1CCOC(c2ccc(Cl)c(Cl)c2)C1 (centres undefined) | 3.7%
CO[C@H]1C(=O)N(C(C)C)[C@H]1C1CCN(Cc2ccc3cc[nH]c3c2)CC1 | 7.4%
O=C1NCCCCCN(Cc2cn[nH]c2-c2ccccc2)[C@H]2CCC[C@@H]12 | 2.7%
Cn1nccc1C(=O)N1CCC(N2CC(OCC3CC3)C23CCOCC3)CC1 (centres undefined) | 2.2%
Fc1cccc(CN2CCC(N3CC(OCC4CC4)C34CCCCC4)CC2)c1 (centres undefined) | 0.6%
CN(C)c1cccc(C(=O)N2CCCN(c3cc(-c4ccccc4)[nH]n3)CC2)c1 | -1.7%
Cc1nc(-c2cccc(Cl)c2)n(CC(=O)Nc2ccc(F)cc2)c(=O)c1CCO | -3.8%
COCc1cc(C[C@@H]2CC[C@H](O)[C@@H](CNC(=O)NC(C)C)O2)no1 | 2.2%[70.6 µM]

# (more compounds)
SMILES,hNpr1 antagonist
Cc1cc(Cl)ccc1S(=O)(=O)N(C)CC1CCOC1 (centres undefined),2.0%
CCCN(CC1CCOC1)C(=O)Nc1cccc(C)c1C (centres undefined),5.4%
Cc1cc2nc(CO[C@H]3CN(Cc4nccn4C)C[C@H]3F)[nH]c2cc1C,2.7%[70.6 µM]
O=C(NCC1Cn2cccc2C(=O)N1Cc1ccccc1)c1ccsc1 (centres undefined),-17.7%
COc1ccc(CCCNC(=O)c2ccc(N3CCC(N(C)C)C3)nc2)cc1 (centres undefined),-7.8%
C[S+](=O)([O-])N1Cc2ccccc2CC12CN(C(=O)c1ccc(Cl)nc1)C2,0.2%
CCCS(=O)(=O)NCCc1ncc(C)n1CCOC,4.1%
O=C(O)CCc1cc2n(n1)CCCN(C(=O)c1cc3c([nH]c1=O)CCC3)C2,5.8%
CCOc1ccccc1CN1CCC2(CCN(C(=O)c3ccccc3F)CC2)Oc2ccccc21,-0.2%
Cc1cnc(CC2CCN(C(=O)Cc3cccnc3)CC2)n1Cc1ccc(F)cc1,4.9%
N#Cc1cccc(-c2ccnc(N[C@H]3CO[C@H]4[C@@H]3OC[C@@H]4NC(=O)c3ccc4c(c3)OCO4)n2)c1,-14.6%
Cc1cc(C)c(CNC(=O)c2nc(Nc3ccccc3)cc3[nH]ccc23)c(=O)[nH]1,-11.3%[70.6 µM]
CCc1ccc(CN2CC(C(=O)NCc3ccncc3)C3(CCOCC3)C2)cc1 (centres undefined),4.7%
COc1cccc(CC(=O)N2CCCC(c3nc(CCOCC4CCCC4)no3)C2)c1 (centres undefined),-25.3%
CCN1CCN(c2nc3c(s2)CN(C(=O)COC)CC3)CC1,1.6%
O=C(NCCCN1CCCCCC1)c1ccc(CC2CCN(C(=O)C3CC3)CC2)cc1,-11.4%
O=C(Nc1cccc(F)c1)N1CCC(Oc2ncccc2C(=O)N2CCOCC2)C1 (centres undefined),-1.2%
CN1CCCCC(CC(=O)NCCc2ccccc2)C1=O (centres undefined),-0.1%
COc1ccccc1-c1ccccc1CN1CCC(C)(NC(C)=O)C1 (centres undefined),-9.8%[70.6 µM]
CC1=C[C@@H](CN2CCN(CCO)CC2)[C@H](C(C)C)C[C@H]1Cc1nnc(C)o1,2.2%[70.6 µM]
O=C1NN=C(c2ccncc2)C12CCN([S+](=O)([O-])c1cccc(C(F)(F)F)c1)CC2,u
O=C(CCc1ccccc1)C(=O)N1CCCN2CCC[C@H]2C1,-1.6%
O=C(c1ccc(C(F)(F)F)cc1)N1CCN(c2nc3ncccc3o2)CC1,-21.4%
Cc1ncccc1C(=O)N1CC[C@@H]2CN(S(C)(=O)=O)[C@@H]2C1,3.4%
Cc1cc(C)n(CC(=O)N[C@@H]2CN(C)C[C@H]2CN(C)C)n1,0.0%
O=C(Nc1ccc(F)cc1F)N1CC(c2nnc(-c3ccncc3)o2)C2(CCOCC2)C1 (centres undefined),1.2%
COC1CCOC2(CCN(C(=O)CCCc3ccccc3)CC2)C1 (centres undefined),-10.3%
Cc1cccc(C(=O)N2C(C(=O)NCC3CCCO3)COC23CCN(C(=O)C(C)(C)C)CC3)c1 (centres undefined),3.3%
Cc1ccccc1CN1CCC(CN(Cc2cccnc2)C(=O)CN2CCOC2=O)CC1,-2.8%
O=C(C1CC1)N1CCC(Oc2cccnc2)C1 (centres undefined),9.6%

# Shown bar-delimited: entries from further up.
Compound | hNpr1 antagonist
Cc1ccccc1CN1C[C@H](O)C[C@H]1c1nc(C2CC2)no1 | 4.6%[70.6 µM]
O=C(NCCCN1CCCCCC1)c1ccc(CC2CCN(C(=O)C3CC3)CC2)cc1 | -11.4%

# Continuation.
SMILES,hNpr1 antagonist
Cc1cnc(C(=O)NCC2Cn3cccc3C(=O)N2C)cn1 (centres undefined),4.0%
O=C(Cc1cccnc1)N1CCCC(c2ccccc2)(c2ccccc2)C1,-3.9%
COc1ccc(-c2nc3c(c(-c4ccccc4)n2)CN(C(=O)c2ccccc2F)CC3)cc1,-1.5%
O=C(CN1C(=O)NC2(CCCCC2)C1=O)Nc1ccc2c(c1)OCCO2,5.9%
O=C(c1cccc(F)c1)N1CCCCCC1c1nnc(-c2ccccc2)o1 (centres undefined),3.2%
Cc1noc(C)c1-c1cc2c(cc(C)n2CCN(C)C)c(Nc2ccn(C)n2)n1,-2.0%[70.6 µM]
CCCNC(=O)N1CC(c2noc(C3CCCN3CC3CC3)n2)C1 (centres undefined),-0.1%
CN(C)c1nc(-c2ccncc2)nc2c1CCN(C(=O)c1ccc(O)cc1)C2,3.2%
O=C(Nc1ccc(-c2nnc3n2CCCC3)cc1)c1cccc(F)c1,-1.9%
Cc1ccccc1CCC1CCCN(C(=O)C2(C)CC2)C1 (centres undefined),-6.7%
COC(=O)[C@@H]1Cc2ncn(Cc3ccc(Cl)cc3)c2CN1C(=O)c1ccccc1OC,0.9%
CCC(=O)Nc1ccc(C2(C(=O)N3CCC(N4CCCCC4)CC3)CCCCC2)cc1,-2.4%
O=C(CC1CCN(C(=O)NC2CCCCC2)C1)NCc1ccccc1 (centres undefined),-0.5%
Cc1cccc(C)c1Oc1ncccc1CNC(=O)CCN1CCCCO1,4.4%
C[C@@H]1CN(C(=O)c2ccc(-c3nnn(C)n3)cc2)C[C@@]1(O)C1CC1,1.7%
CCCCc1nn(CC(=O)NCc2cccc3[nH]ccc23)c(=O)n1CC,3.7%
Cn1ccnc1CN1CCOC[C@H](Oc2ccccc2)C1,4.7%[70.6 µM]
CN(C)C[C@@H]1CN(C2CCOCC2)C[C@H]1NS(=O)(=O)c1ccc(C#N)cc1,7.9%
Fc1ccc(C2Cn3nnc(-c4nc(-c5ccccc5Cl)no4)c3CO2)cc1 (centres undefined),-14.2%
COc1ccc(C(=O)N2CCCCCNC(=O)[C@@H]3CCC[C@@H]32)cc1F,-3.9%
COCCCNC(=O)C1CC(=O)N(c2n[nH]c3cccc(F)c23)C1 (centres undefined),5.0%
COc1ccc(OC)c(CN2CCNc3cc(-c4ccnc(C)c4)ncc3C2)c1,4.3%[70.6 µM]
CCNC(=O)N1CC[C@H]2CC(=O)N(CCc3cccc(OC)c3OC)CC[C@H]2C1,-11.7%[70.6 µM]
COCc1nc(C2CCCN(C(=O)Cc3cccc(OC)c3)C2)no1 (centres undefined),-3.1%
COCCNC(=O)C1c2ccccc2C(=O)N(C2CCCC2)C12CCCCC2 (centres undefined),1.2%
O=C(Cn1nc2n(c1=O)CCCCC2)N1CCCc2ccccc21,7.6%
Cc1ccc(N2C(=O)N[C@@H]3CCN(S(=O)(=O)c4ccc(Cl)cc4)[C@@H]3C2=O)cc1,-8.7%[70.6 µM]
CN(Cc1ccccc1)Cc1cc(C[C@@H]2CC[C@H](O)[C@@H](CNC(=O)Nc3ccccc3)O2)no1,3.3%
CC(C)C1c2nccn2CCCN1C(=O)c1ccc(Cn2cncn2)o1 (centres undefined),6.3%
COc1ccc(C(=O)N2CCCC(N3CCN(c4ccc(F)cc4)CC3)C2)o1 (centres undefined),0.9%
Cc1ccc2nc(COCC(=O)N[C@H]3CC[C@@H]4CCC[C@@H]43)[nH]c2c1,-16.3%
O=C(c1ccccc1)N1C[C@@H](F)[C@@H](OCc2nc3ccc(C(F)(F)F)cc3[nH]2)C1,-0.2%[70.6 µM]
CCn1ccc(C(=O)N2C[C@@H](COCC3CC3)[C@H](c3nc(C)no3)C2)n1,1.9%
O=C(C1CCCC1)N1CCC(n2cnnc2C2CC2)CC1,0.5%
CCNC(=O)O[C@@H]1CC[C@]2(C)C(CC[C@@H](O)[C@H]2CC(=O)NCc2cc(F)cc(F)c2)[C@]1(C)CO (some centres undefined),-9.6%
COc1ccccc1CN1C(=O)COC[C@@H]1[C@H](O)c1ccc(NC(=O)c2cccnc2)cc1,0.0%
CC(C)CN1CC2(C1)C(=O)N(Cc1ccccc1F)C(=O)[C@@H]1C[C@@H](O)CN12,0.9%[70.6 µM]
O=C(CC1=C2CCCCC2NC1=O)NCCc1c[nH]c2ccccc12 (centres undefined),-2.7%
CCN(CC)C(=O)N1CC(Oc2cccc(-c3nc(C)no3)c2)C1,-0.3%
c1ccc(Cn2cc(CN3CCCC3)c(-c3ccc4c(c3)OCO4)n2)cc1,1.4%
Cc1ncsc1C1N(C2CCN(C(=O)NC3CCCCC3)CC2)C(=O)C12CCCC2 (centres undefined),-13.7%
CC(=O)c1ccc(NC(=O)O[C@@H]2CO[C@H]3[C@@H]2OC[C@@H]3NC(=O)COc2ccccc2)cc1,-13.2%[70.6 µM]
CCc1nc(-c2c3n(c(=O)n(Cc4ccccc4F)c2=O)CCCC3)no1,1.3%
CCC1c2nccn2CCCN1C(=O)Cc1c(C)noc1C (centres undefined),-4.0%
O=C(Cn1cccc1-c1nc(-c2ccccc2)no1)N1CCc2ccccc21,-9.0%

# This is a subset; the hit share may differ from the screen's.
